# gsp agonist = gsp mutant agonism | gsp mutant cells, cAMP HTRF, 30 min; control for the full effect not named in the record | Potency, µM (top dose mostly 76.9 µM), without a hit: at the top dose activation (cAMP increase), most hits filed as activators | hit rate 0.13% among 340,000; active = well fitted activation curve with a large enough effect; inconclusive = small, poorly fitted or top-dose-only effect, or another doubt; inactive = no such curve, though single readings can be large or run the other way; cell line not stated here;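 note: phosphodiesterase inhibitor Ro 20-1724 added with compounds to block cAMP breakdown; potency is the fitted concentration of half-maximal effect; nearly all actives have a fitted effect of over 60% in size; about a fifth of the inactives were tested at one dose only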
#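 Cells in DMEM/10% FBS with G418 were pretreated with compounds in DMSO plus […] (300 uM stock) for 30 min at 37C. cAMP was measured by HTRF (cAMP-d2 plus anti-cAMP antibody-K) after 30 min at room temperature.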
# ClpP mod = qHTS Assay for Activators of ClpP; ATP-dependent Clp protease proteolytic subunit (Bacillus subtilis (strain 168)), P80244; purified B. subtilis ClpP, FRET peptide cleavage, 20 min; Potency, µM (top dose mostly 57.5 µM), without a hit: at the top dose activity change, negative = active; hit rate 1.9% among 340,000; active = well fitted falling curve with a large enough effect; inconclusive = small, poorly fitted or top-dose-only effect; inactive = no such curve, though single readings can be large or run the other way; note: potency is the fitted concentration of half-maximal effect; the source files actives as falling curves though it sought activators and does not explain the sign; nearly all actives have a fitted effect of over 65% in size; many hits overshoot -100%
# Target sequence (P80244 whole entry, looked up): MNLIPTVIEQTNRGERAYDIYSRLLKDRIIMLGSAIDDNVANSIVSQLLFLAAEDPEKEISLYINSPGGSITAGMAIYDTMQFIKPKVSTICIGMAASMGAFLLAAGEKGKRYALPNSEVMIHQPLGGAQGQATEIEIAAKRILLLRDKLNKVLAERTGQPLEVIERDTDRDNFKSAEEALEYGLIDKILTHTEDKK
#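 FRET quenching reversal measured ClpP activation: 10 microg/mL B. subtilis ClpP at pH 8 with the FRET-FV decapeptide, read at 430 nm after 320 nm excitation. The 20-min minus 0-min signal was scaled between DMSO/no-enzyme wells and ADEP (5.8 microM final).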
# Menin-MLL FL inh = displaces fluorescein MLL peptide from human menin | 290,000 tested, under 10 active | Fluorescence polarization, fluorescein-MLL peptide displacement from menin | FP activity change, % at 61.4 µM | AID 1766; inconclusive = falling polarisation curve, or a change in total fluorescence; inactive = total fluorescence flat and polarisation flat or rising; no compound was filed as active; the % refers to the polarisation; negative = inhibition;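 note: % of control where 0% means no effect; inhibitors lower the polarisation; unlabelled MLL peptide was the positive control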
# TRPML1 inh = blocks the human TRPML1 channel. hit rate 0.02% among 390,000. TRPML1-inducible cells, Ca2+ dye fluorescence, FDSS; stronger effect = lower value; inhibition of EC80 agonist-evoked calcium signal. Q9GZU1. activity change, negative = inhibition, % (no concentration beside the values); in the data active means activity change below about -50%; inconclusive means about -30% to -50%; inactive means above about -30%;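 note: stimulus is agonist 54-4 at its EC80 concentration; % is set by controls: 0 for no effect and ±100 for the full control effect; compound concentration not given in the record; the text of the record puts the active cut at -80%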
#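 Tet-induced TRPML1-DL cells loaded with Ca8 no-wash calcium dye were read kinetically on FDSS. Compound addition was followed by EC80 agonist 54-4 (4 uM final); inhibition was read over 110 s.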
# Sfp inh = blocks B. subtilis Sfp PPTase activity; Biochemical Sfp PPTase activity, qHTS; Potency, µM, inactives show max response, negative = inhibition, hits mostly inhibitors; hit rate 3.5% among 310,000; AID 1490; active = well fitted inhibition curve with a large enough effect; inconclusive = small, poorly fitted or top-dose-only effect, or another doubt; inactive = no such curve, though single readings can be large or run the other way;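 note: the enzyme is Sfp with the accession as filed and its product quenches rhodamine fluorescence; potency is the fitted concentration of half-maximal effect; 0% = enzyme reaction without inhibitor and -100% = no enzyme wells; top concentration of the series not given in the record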
#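 Reaction rates are the 30-min fluorescence difference (ex 525, em 598 nm) in wells containing 15 nM Sfp, 5 uM rhodamine-CoA and 12.5 uM BHQ-2-YbbR at pH 7.6 with 10 mM MgCl2.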
# gsp antagonist = antagonists of gsp mutant (McCune-Albright syndrome); gsp-mutant cells, cAMP HTRF, 30 min; control for the full effect not named in the record; Potency, µM (highest dose often 76.9 µM), for the others: at the highest dose activity change, negative = inhibition, usual class: inhibitors; hit rate 0.4% among 340,000; active = falling curve of any shape with a large fitted effect; inconclusive = falling curve, mostly with a smaller effect; inactive = flat or rising curve; cell line not stated here;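 note: intracellular cAMP measured with PDE inhibitor Ro 20-1724 present during compound exposure; potency is the fitted concentration of half-maximal effect; % is set by controls: 0 for no effect and ±100 for the full control effect; nearly all actives have a fitted effect of over 65% in size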
#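 Cells, 2000/well, grown 16–24 h in DMEM 10% FBS with 0.5 mg/ml G418, then compounds plus […] (300 uM addition stock), 30 min at 37C. cAMP read by HTRF (cAMP-d2 and anti-cAMP antibody-K in lysis buffer) after 30 min RT.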
# TRPV1 PAM = enhances activation of the human vanilloid receptor TRPV1; Q8NER1; TRPV1-expressing cells, Fluo-8 calcium influx, capsaicin EC20 potentiation; host cell line not named in the record; control for the full effect not named in the record; potentiation, % at 8.33 µM; hit rate 0.02% among 320,000; active means potentiation above 80%; inconclusive means 30% to 80%; inactive means below 30%; note: 0% is about no effect
# Target sequence (Q8NER1 whole entry, looked up): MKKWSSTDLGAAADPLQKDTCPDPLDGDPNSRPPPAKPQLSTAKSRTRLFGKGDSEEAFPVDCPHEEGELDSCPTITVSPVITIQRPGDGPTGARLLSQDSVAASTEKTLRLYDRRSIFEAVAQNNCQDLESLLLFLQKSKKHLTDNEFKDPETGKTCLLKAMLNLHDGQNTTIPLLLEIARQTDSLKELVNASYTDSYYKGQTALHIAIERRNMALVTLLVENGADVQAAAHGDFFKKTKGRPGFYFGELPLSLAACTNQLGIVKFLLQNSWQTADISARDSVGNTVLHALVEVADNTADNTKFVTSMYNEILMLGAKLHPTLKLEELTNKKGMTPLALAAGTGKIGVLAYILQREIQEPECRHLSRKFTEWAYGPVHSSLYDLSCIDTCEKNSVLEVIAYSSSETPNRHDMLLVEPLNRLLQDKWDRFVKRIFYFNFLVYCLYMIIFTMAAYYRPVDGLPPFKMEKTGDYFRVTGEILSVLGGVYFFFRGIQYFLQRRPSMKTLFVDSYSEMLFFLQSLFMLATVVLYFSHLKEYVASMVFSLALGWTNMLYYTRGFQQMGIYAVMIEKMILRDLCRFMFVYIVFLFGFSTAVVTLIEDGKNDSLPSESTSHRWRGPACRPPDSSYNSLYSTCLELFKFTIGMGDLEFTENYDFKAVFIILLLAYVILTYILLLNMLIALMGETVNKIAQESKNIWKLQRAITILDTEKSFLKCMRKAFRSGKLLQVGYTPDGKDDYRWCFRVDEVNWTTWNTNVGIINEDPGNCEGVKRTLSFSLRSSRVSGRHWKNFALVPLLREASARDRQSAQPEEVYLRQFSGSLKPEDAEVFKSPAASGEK
#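 TRPV1-expressing cells were cultured overnight at 35.5C and loaded with Fluo-8 calcium dye for 40 to 90 min at room temperature. After a 10 s baseline, compound was added and calcium influx was read kinetically for 3 min (ex 480/em 520 nm).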
# * = called active by the depositor; ? = inconclusive; · = no result given; [ ] = another dose, or the depositor's remark.
SMILES,gsp agonist,ClpP mod,Menin-MLL FL inh,TRPML1 inh,Sfp inh,gsp antagonist,TRPV1 PAM
CC(C)=CCN1CCN(C/C(Cl)=C/c2ccccc2)CC1CCO (configuration not stated),?,-1.6%,1.0,2.5,5.8%,11.0%,?
CN(C)S(=O)(=O)c1cccc(NC(=O)c2ccc(NS(=O)(=O)c3cccs3)cc2)c1,-2.0%,5.1%,·,6.6,·,?,·
CC(C(c1ccc2c(c1)OCO2)c1c(N)n(C)c(=O)n(C)c1=O)[N+](=O)[O-] (configuration not stated),-6.4%,-0.6%,·,-7.4,·,3.5%,·
CCC(CC)c1nnc(NC(=O)C2CC(=O)N(CCc3ccc(F)cc3)C2)s1 (configuration not stated),29.2%,·,-7.0,-7.0,11.2µM*,-15.0%,-6.2
CCOC(=O)c1ccc(N2C(=O)c3n[nH]c(-c4ccco4)c3C2c2ccc([N+](=O)[O-])cc2)cc1 (configuration not stated),2.5%,-2.3%,2.5,-5.6,-14.8%,8.5%,1.5
NS(=O)(=O)c1ccc(CNC(=O)c2ccncc2)cc1,-35.1%,-0.5%,2.4,-0.4,8.3%,15.9%,3.4
Cc1coc2cc3oc(=O)c(CCC(=O)N[C@@H](CCCNC(N)=O)C(=O)O)c(C)c3cc12,3.8%,3.7%,8.5,-19.3,22.3%,9.3%,9.9
CC(=O)NC1=NN(C(C)=O)C(c2ccco2)S1 (configuration not stated),-5.3%[15.4 µM],-4.4%,0.5,0.6,2.2%,0.2%,15.6
CC(=O)NC(CC(=O)NCCOc1ccccc1F)c1ccccc1 (configuration not stated),-15.3%,·,-0.1,56.8,9.2%,14.1%,1.8
CCOC(=O)/C(C#N)=C\c1ccc(OC)c(OC)c1,6.8%[15.4 µM],·,-0.8,-12.5,12.8%,9.3%,-12.2
O=C(c1cc([N+](=O)[O-])[nH]n1)N1CCSCC1,-7.7%[15.4 µM],-1.3%,2.5,11.4,4.6%,-19.7%,-2.8
CCOc1ccc(N2CC(C(=O)NNC(=O)c3ccc(Br)cc3)CC2=O)cc1 (configuration not stated),-32.6%[inhibitor],-0.9%,·,10.6,·,-4.4%,-1.2
O=C(O)c1cccc2c1C(=O)N(CC1CCCO1)C2 (configuration not stated),8.3%[15.4 µM],·,6.4,3.4,4.0%,-5.0%,-4.0
COc1cccc(/C=N/Nc2ncc(C(F)(F)F)cc2Cl)c1O,17.5%,2.0%,-4.5,24.5,28.3%,-0.6%,-9.0
Cc1ccc(-n2c(O)c(C=NCc3ccccn3)c3ccccc3c2=O)cc1,3.8%,-5.5%,5.0,-14.5,5.9%,-7.0%,16.3
COc1ccc(S(=O)(=O)N2CCC(C(=O)NCCc3c[nH]c4ccccc34)CC2)cc1,-79.8%,-1.5%,-6.5,8.4,4.0%,-21.9%,15.0
COCCCN1C(=O)C(=O)/C(=C(/O)c2ccc(S(=O)(=O)N3CCOCC3)cc2)C1c1ccc(Cl)cc1 (configuration not stated),22.3%,-2.6%,·,-9.9,8.5%,-5.9%,-10.7
CCOC(=O)C(NS(=O)(=O)c1ccccc1)(C(F)(F)F)P(=O)(OCC(C)C)OCC(C)C (configuration not stated),0.4%,-1.9%,-0.3,-14.4,-1.3%,8.8%,12.5
O=C(COc1ccc(S(=O)(=O)N2CCCC2)cc1Cl)NCc1cccnc1,-1.4%[15.4 µM],-1.0%,·,34.8,9.0%,3.9%,1.1
Cc1ccc(N(C)S(=O)(=O)c2c(C)[nH]c(C)c2C(=O)N2CCCC2)cc1,-0.9%,0.1%,·,-16.4,10.4%,-1.8%,5.9
COC(=O)c1cc(NC(=O)CC2NC3CCCCC3NC2=O)cc(C(=O)OC)c1 (configuration not stated),6.4%,-0.9%,2.9,5.9,16.1%,7.7%,·
CCOC(=O)c1sc(N2C(=O)C(O)=C(C(=O)c3ccc(C)o3)C2c2ccc(OC)c(OC)c2)nc1C (configuration not stated),?,0.8%,·,-19.2,12.0%,8.8%,-10.9
Cc1ccc2nc(SCc3ccc([N+](=O)[O-])cc3)nc(C)c2c1,-19.6%,3.4%,-1.8,50.0,-20.2%,8.9%,10.7
CCc1cc(C(=O)N2CCCC(N3CCN(c4cccc(C(F)(F)F)c4)CC3)C2)n(C)n1 (configuration not stated),29.8%,-1.8%,1.8,-22.0,5.3%,-9.7%,-12.1
Cc1ccc(C)c(N2CCN(CCCNC(=O)Cn3cccc3C(=O)c3ccccc3C)CC2)c1,-1.2%[15.4 µM],·,4.2,10.2,-1.0%,·,-6.5
COc1ccc(C(CNC(=O)c2ccc(NS(=O)(=O)c3ccc(F)cc3)cc2)N2CCOCC2)cc1 (configuration not stated),-2.0%,-0.2%,-2.5,-7.2,-0.6%,-9.0%,5.7
CC1(C)CC2CC(C)(CN2C(=O)C23CCC(C)(C(=O)C2)C3(C)C)C1 (configuration not stated),-17.9%,-11.1%,-1.3,-2.1,-2.0%,1.3%,-18.0
COc1ccccc1-c1ccc(=O)n(CC(=O)NC(C)(C)C)n1,39.5%,-0.9%,-1.0,-4.7,7.2%,9.6%,-18.2
Cc1nn(C)c(C)c1S(=O)(=O)N(CC(=O)NCCCOC(C)C)c1ccc(C(C)C)cc1,?,-0.1%,-1.1,-1.5,8.1%,12.2%,0.3
Cc1cccn2c(CN(C)C3CCCc4ccccc43)c(C(=O)N3CCOCC3)nc12 (configuration not stated),4.0%[15.4 µM],·,0.6,2.1,0.1%,-14.6%,-10.8
COCCn1c(C)cc(C(=O)CN2CCCCC2)c1C,7.7%,·,2.2,6.9,9.9%,7.7%,-3.9
CCC(C)NC(=O)CSc1nc2c(sc(=S)n2Cc2ccco2)c(=O)n1-c1ccccc1 (configuration not stated),21.1%,1.7%,-0.6,14.2,?,-7.7%,10.4
N#Cc1ccc(S(=O)(=O)Nc2ccccc2N2CCOCC2)cc1,11.8%,-2.7%,·,4.4,·,2.1%,·
O=C(NNC(=O)c1cc2c(s1)CCCC2)c1ccccc1,2.9%,-7.2%,-4.1,-23.6,12.8%,-0.9%,-22.1
CCN(CC(=O)Nc1c(F)cccc1F)C(=O)CCCN1C(=O)c2cccc3cccc(c23)C1=O,12.6µM*,4.1%,·,-3.0,·,·,·
C=CCN(c1ccc(C(=O)Nc2ccc(C)cc2)cc1)S(C)(=O)=O,12.8%[15.4 µM],·,-2.5,-22.8,22.7%,4.7%,1.0
CCOc1ccc(C(=O)CCN2CCCCCC2)cc1,4.1%,-0.8%,0.0,5.0,?,4.9%,-1.9
Cc1occc1C(=O)NNC(=O)c1ccc(S(=O)(=O)N(C)C)cc1,-59.2%[inhibitor],4.6%,·,12.7,·,20.9%,4.0
CC1(C)CC(NC(=O)CC(c2ccccc2)c2ccccc2)CC(C)(C)N1,?,0.8%,5.0,-5.5,12.4%,4.0%,10.5
Cc1nnc(C)n1/N=C/c1cccs1,-14.0%,-0.4%,2.9,5.5,-3.2%,14.7%,-11.3
CC(C)(C)c1ccc(C(=O)c2c[nH]c(C(=O)NCc3cccs3)c2)cc1,-3.9%,1.6%,0.0,27.8,11.4%,2.4%,3.3
CCOC(=O)C1=C(CNCc2ccc(C)cc2)NC(=O)NC1c1cc(C)ccc1C (configuration not stated),-22.5%,-1.4%,11.3,-0.7,4.7%,3.8%,-10.5
CCC(=O)Nc1cccc(C2=NOC3(C2)C[C@@H](C(N)=O)N(C(=O)c2cc([N+](=O)[O-])cc([N+](=O)[O-])c2)C3)c1 (some centres not stated),·,1.3%,-0.1,-5.8,7.7%,1.1%,26.6
CCn1c(=O)c2cc(C(=O)Nc3ccccc3OC)sc2c2ccccc21,13.6%,-1.1%,6.0,19.1,?,-15.8%,5.4
CCN(CC)S(=O)(=O)c1cc(NC(=O)CNc2cccc(S(=O)(=O)N3CCOCC3)c2)ccc1C,10.4%,1.2%,·,18.0,·,-18.2%,-5.7
CN(Cc1cccs1)C(=O)c1cccc(S(=O)(=O)N2CCCCCC2)c1,-0.9%,0.7%,·,2.1,·,4.4%,-15.1
O=C1CNc2ccc(C(=O)N3CCN(c4ccccn4)CC3)cc2N1,-43.2%,-10.3%,12.8,15.4,11.5%,-8.3%,6.0
C=CCNC(=S)NCc1ccccc1OC,5.5%[15.4 µM],·,1.4,-1.4,20.7%,·,20.5
Cc1ccccc1C(=O)N1CCN(c2ncccn2)CC1,6.0%[15.4 µM],0.0%,-7.3,-0.5,2.6%,1.0%,19.0
CCOc1ccc(N2C(=O)CN(O)C=C3N=c4ccccc4=C32)cc1,·,·,10.5,·,4.47µM*,·,1.5
O=C(OCc1cccc(Cl)c1)c1cc(S(=O)(=O)N2CCCCC2)ccc1N1CCOCC1,-10.4%,-22.3%,-3.9,58.4,-2.0%,-5.0%,2.0
COc1cc([C@H]2Oc3c(OC)cc(CCCO[C@@H]4O[C@H](CO)[C@@H](O)[C@H](O)[C@H]4O)cc3[C@@H]2CO)ccc1O,-36.0%[inhibitor],-5.5%,·,-1.3,·,3.0%,-7.3
O=C(CCNC(=O)c1ccc(Cl)cc1)NCC(c1ccco1)N1CCCC1 (configuration not stated),17.7%,-1.0%,·,9.3,·,10.8%,-2.8
Cc1c(C(=O)c2ccc(Cl)cc2Cl)cnc2cc3c(cc12)OCO3,-17.9%,-2.2%,-7.0,41.6,-4.0%,?,11.1

# Taken from above.
# `O=C(CCNC(=O)c1ccc(Cl)cc1)NCC(c1ccco1)N1CCCC1` (configuration not stated) in ClpP mod = -1.0%
# `COc1cc([C@H]2Oc3c(OC)cc(CCCO[C@@H]4O[C@H](CO)[C@@H](O)[C@H](O)[C@H]4O)cc3[C@@H]2CO)ccc1O` in TRPML1 inh = -1.3

# Filtered by structure: the entries above containing an aryl thioether with sulfur outside any ring.
SMILES,gsp agonist,ClpP mod,Menin-MLL FL inh,TRPML1 inh,Sfp inh,gsp antagonist,TRPV1 PAM
Cc1ccc2nc(SCc3ccc([N+](=O)[O-])cc3)nc(C)c2c1,-19.6%,3.4%,-1.8,50.0,-20.2%,8.9%,10.7
CCC(C)NC(=O)CSc1nc2c(sc(=S)n2Cc2ccco2)c(=O)n1-c1ccccc1 (configuration not stated),21.1%,1.7%,-0.6,14.2,?,-7.7%,10.4

# Screens (PubChem)
